YopH inh = blocks Yersinia enterocolitica YopH tyrosine phosphatase. hit rate 0.16% among 140,000. AID 898. inhibition, %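 (about 10 µM by stock and volumes)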. fluorescence Ex485/Em525;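 active = inhibition of 50% or more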;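 note: controls were vehicle for no effect and minimum signal wells for full effect; inactives centre near -20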
Arbovirus anti = antivirals against arbovirus infection | arbovirus infection cell-based antiviral screen | hit rate 0.37% among 200,000 | inhibition, % at 10 µM;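 active = inhibition from about 30%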;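 note: bluetongue infection of BSR cells; cell survival read as ATP light after 72 h; 0% = infected wells without compound and 100% = uninfected wells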
Mtb betalactam = beta-lactam sensitization of Mtb H37Rv; M. tuberculosis H37Rv growth with meropenem, percent inhibition; hits of this screen are not shown here; inhibition, % at 25 µM; hit rate 0.27% among 330,000;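 active = about 74% or more and at least 40 points above the plate without the antibiotic, then above 30% in a dose series; inconclusive = first-round hits that could not be retested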;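 note: growth measured after seven days incubation then overnight dye step; 0% = bacteria only wells and 100% = bacteria with antibiotic; twin plates without the antibiotic show which effects depend on it; some results filed as inactive read as strong as hits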
RecA intein inh = blocks M. tuberculosis RecA intein splicing; P9WHJ3; AID 2221; cell-free RecA intein splicing, fluorescence; inhibition, %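 (about 9 µM by stock and volumes)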; hit rate 0.75% among 290,000; in the data active = inhibition above about 30%; inconclusive = no clear call, values can overlap the other calls;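 note: 0% = vehicle wells and 100% = reference inhibitor control wells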
Target sequence (P9WHJ3 whole entry, looked up): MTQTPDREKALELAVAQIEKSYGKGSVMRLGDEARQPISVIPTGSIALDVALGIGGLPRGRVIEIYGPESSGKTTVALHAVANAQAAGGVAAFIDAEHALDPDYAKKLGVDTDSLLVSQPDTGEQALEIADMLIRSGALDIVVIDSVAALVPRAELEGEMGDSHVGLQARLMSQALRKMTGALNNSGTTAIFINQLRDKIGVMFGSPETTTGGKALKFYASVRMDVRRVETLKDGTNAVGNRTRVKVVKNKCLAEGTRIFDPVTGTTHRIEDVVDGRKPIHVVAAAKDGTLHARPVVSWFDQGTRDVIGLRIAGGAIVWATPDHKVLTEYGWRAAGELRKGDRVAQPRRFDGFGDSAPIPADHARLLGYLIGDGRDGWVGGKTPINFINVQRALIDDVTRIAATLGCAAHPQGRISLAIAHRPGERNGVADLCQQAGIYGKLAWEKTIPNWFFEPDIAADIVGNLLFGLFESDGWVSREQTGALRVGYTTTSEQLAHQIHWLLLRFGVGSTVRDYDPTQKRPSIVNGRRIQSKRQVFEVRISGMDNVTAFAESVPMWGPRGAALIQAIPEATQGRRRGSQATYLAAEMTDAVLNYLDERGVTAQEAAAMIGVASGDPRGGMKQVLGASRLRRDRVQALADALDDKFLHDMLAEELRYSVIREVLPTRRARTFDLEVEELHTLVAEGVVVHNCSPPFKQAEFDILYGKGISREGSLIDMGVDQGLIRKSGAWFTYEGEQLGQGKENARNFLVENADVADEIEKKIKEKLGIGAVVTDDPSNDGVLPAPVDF
Mtb H37Rv = M. tuberculosis H37Rv growth inhibitors, H37Rv strain (AID 1626) | M. tuberculosis H37Rv growth inhibition; higher % means a stronger effect | one-dose inhibition, % at 10 µM; IC50 in µM for titrated hits | hit rate 0.95% among 220,000;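 active = confirmed in a dose series; inconclusive = inhibition above 80% but not taken into the dose series; inactive = below 80% or under 30% at every dose of the series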;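 note: bacteria incubated seven days before Alamar blue readout; 0% = bacteria only wells and 100% = bacteria with antibiotic wells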
Arbovirus anti repeat = second read-out of Arbovirus anti, no call of its own (marks repeat the call); inhibition, %; measured here: 10K subset replicate screen; many hits read low in the repeat;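 first of two repeat runs on a subset; 0% = infected and 100% = uninfected wells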
* marks the source's active call; other numbers are inactive results; ? = inconclusive; nt = no result given. A portion of the library (hit frequency here may not be typical).

SMILES	YopH inh	Arbovirus anti	Mtb betalactam	RecA intein inh	Mtb H37Rv	others
c1ccc2c(SCc3cn4cccnc4n3)ncnc2c1	0	4	-9	3.7	1%
COC(=O)[C@H](CC(C)C)NC(=O)N1CCN(c2cccc(C(F)(F)F)c2)CC1	7	4	?	1.2	-1%
COc1cccc(C(=O)N(Cc2cc3cc(C)ccc3[nH]c2=O)C(C)C)c1	-40	2	-9	3.0	-9%
O=C(Oc1cccc2ccccc12)c1ccncc1	-1	-4	6	8.8	-3%
COCCNC(=O)C1CCCN(S(=O)(=O)c2cccc3nsnc23)C1 (configuration not stated)	nt	nt	-6	-3.3	nt
CC(=O)c1cccc(NC(=O)CCNS(=O)(=O)c2cccc(C(C)=O)c2)c1	-11	0	-2	-2.8	-9%
Nc1cc(=O)nc(SCC(=O)N2CCN(c3ccccc3)CC2)n1-c1ccc(F)cc1	nt	nt	0	0.8	nt
CC(=O)c1cccc(OCc2cc(C(=O)N(C)Cc3ccc(C)o3)no2)c1	nt	nt	0	1.6	nt
Cc1cc(C)n(-c2ccc(NC(=O)C3CCCCN3C(=O)c3ccoc3C)cc2)n1 (configuration not stated)	nt	nt	1	3.1	nt
Oc1ccccc1C=Nc1cccc2ccccc12	nt	nt	4	2.3	nt
CCOC(=O)/C=C1\SCC(=O)N1CC(=O)NCCOC	nt	1	-2	-2.7	6%
CCCNC(=O)c1c(CSc2ccccc2)noc1C(=O)NCc1ccccc1	nt	nt	-5	3.6	8%

By substructure, those above with a halogen (two)
SMILES	YopH inh	Arbovirus anti	Mtb betalactam	RecA intein inh	Mtb H37Rv	others
COC(=O)[C@H](CC(C)C)NC(=O)N1CCN(c2cccc(C(F)(F)F)c2)CC1	7	4	?	1.2	-1%
Nc1cc(=O)nc(SCC(=O)N2CCN(c3ccccc3)CC2)n1-c1ccc(F)cc1	nt	nt	0	0.8	nt

Additional records
SMILES	YopH inh	Arbovirus anti	Mtb betalactam	RecA intein inh	Mtb H37Rv	others
O=C(NC(=S)NN1CCCCC1c1cccnc1)c1ccc(Br)cc1 (configuration not stated)	nt	nt	-2	-0.1	50%
CC(=O)c1cccc(N(CC(=O)Nc2ccc(F)cc2F)S(C)(=O)=O)c1	3	9	-7	-3.5	-4%
O=C(CSc1nnc(Cc2ccccc2)o1)NCCN1C(=O)CSC1=O	-52	-4	-5	3.2	-11%
Cn1ccnc1C(=O)c1cc(SCC(=O)N2CCOCC2)nc2ccccc12	nt	7	-4	1.5	-4%
CCN(CCn1cccn1)C(=O)c1ccc(OC2CCN(C(=O)COC)CC2)cc1	nt	nt	-3	-0.2	nt
O=C(CCC(=O)Nc1ccc(Cl)cc1Cl)N/N=C/c1ccc([N+](=O)[O-])o1	nt	-25	100	5.4	?
COC(=O)C1=C(C(=O)OC)[C@@H]2Nc3ccccc3[C@@]23C[C@@H](C(=O)OC)N(C(C)=O)C3=N1	nt	nt	-3	1.0	-6%
COc1ccc([N+](=O)[O-])cc1/C=N/NC(=O)CNC(=O)C(c1ccccc1)c1ccccc1	-1	0	3	2.2	30%
CC(C)(C)C1CCC(=NNC(=O)c2ccccc2-n2cccc2)CC1 (configuration not stated)	-16	-4	-2	0.0	-4%
O=c1c2ccccc2c(=O)n2n1Cc1ccccc1C2	nt	nt	-2	0.4	nt
Cc1c(/C=N/NC(N)=O)c2ccccn2c1C(=O)c1ccncc1	nt	nt	-6	2.6	-7%
O=C(N/N=C/c1ccco1)c1ccccc1OCc1ccccc1Cl	-7	3	7	3.8	14%
CC1CN(C(=O)CCC(=O)NC(C)c2ccccc2)c2cc(Cl)ccc2O1 (configuration not stated)	nt	nt	-4	3.2	nt
CC1(C)CC2CC(C)(CN2S(=O)(=O)c2cccc(C(=O)OCC(=O)NC(N)=O)c2)C1 (configuration not stated)	nt	nt	6	5.2	nt
Nc1nc(-c2ccc(Br)cc2)cs1	-26	-2	-9	5.2	?
CC1CN(c2nc3c(c(=O)n(Cc4ccc(Cl)c(Cl)c4)c(=O)n3C)n2C)CC(C)O1 (configuration not stated)	-15	-22	1	9.7	-9%
O=C(N/N=C/c1ccc(Cl)c([N+](=O)[O-])c1)c1cc(-c2ccc3c4c(cccc24)CC3)n[nH]1	nt	nt	64	-2.7	5%
COc1ccc(CNC(=O)COc2ccc(S(=O)(=O)N3CCCCC3)cc2)cc1	nt	nt	1	2.7	nt
COc1ccc(CCNC(=O)CN2C(=O)c3ccccc3S2(=O)=O)cc1OC	-2	3	-2	0.8	-8%
Cc1ccc(CN2CCN(CC(=O)N3CCC(C(N)=O)CC3)C2=O)cc1	-49	9	-1	-2.1	-3%	Arbovirus anti repeat=-1
CCCCn1c(-c2cccs2)nc2nc3ccccc3nc21	-21	0	15	-120	4%
S=c1[nH]nc(-c2ccccc2Cl)n1/N=C/C=C/c1ccco1	nt	nt	-11	6.8	1%
CCOC(=O)c1sc(NC(=O)c2ccccc2C(=O)O)c(C(=O)OCC)c1C	nt	nt	-5	-0.1	-11%
COc1cc(NS(=O)(=O)c2ccc3c(c2)n(C)c(=O)n3C)cc(OC)c1	1	14	-4	3.1	-9%
COc1ccc(C2(O)C(=O)Nc3ccccc32)cc1 (configuration not stated)	nt	nt	-16	1.0	nt
CN1CCN(c2ccc([N+](=O)[O-])cc2C(=O)c2ccc(Cl)cc2)CC1	-35	-24	2	2.1	0%
CN(C)S(=O)(=O)c1cc(NC(=O)CSc2nn(-c3ccc(Cl)cc3)c(=S)s2)ccc1Cl	-22	-17	10	3.6	12%
NC(=O)CSc1nnc(-c2ccncc2)n1-c1ccc(Cl)cc1	nt	5	-4	2.5	-8%	Arbovirus anti repeat=10
CC(NC(=O)CCNC(=O)c1ccco1)c1ccc(F)cc1 (configuration not stated)	nt	nt	3	1.6	nt
Cc1ccc2c(c1)c1c(n2CC(O)CN2CCCCCC2)CCCC1 (configuration not stated)	nt	nt	-2	44*	nt
O=C(NCc1ccccc1)c1ccc(S(=O)(=O)C(F)F)cc1	-25	-8	-14	1.2	4%
CC(C)c1ccc(NC(=O)Nc2cc3sccc3n2C)cc1	8	6	-1	-1.4	2%
O=C(CN(C(=O)CCC(=O)Nc1nccs1)c1ccccc1F)NCCc1ccccc1	nt	nt	2	1.5	nt
O=[N+]([O-])c1cccc(/C=N/N2CCN(Cc3ccc(Cl)cc3)CC2)c1	nt	nt	18	7.0	2%
COc1ccc(NC(=O)c2cn(CCC#N)nc2-c2ccccc2)cc1	nt	nt	8	0.4	nt
CCOC(=O)Cn1c(-c2cccnc2Cl)nc2ccccc21	-18	5	2	0.9	-8%
CSc1ccc(S(=O)(=O)NCC(=O)OCC(=O)N2CCCCC2C)cc1[N+](=O)[O-] (configuration not stated)	nt	nt	-8	-2.6	nt
Cc1ccc(NC(=S)Nc2ccc3[nH]c(=O)[nH]c3c2)cc1	nt	nt	-7	-2.9	-7%
O=[N+]([O-])c1cnccc1Nc1ccc(Cl)cc1	nt	nt	1	nt	6%
CCOC(=O)CSc1ccc(C(=O)NCCN2CCOCC2)cc1[N+](=O)[O-]	nt	nt	1	-1.6	nt
CCn1c(SCC(=O)Nc2oc(-c3ccccc3)c(-c3ccccc3)c2C#N)nnc1-c1ccco1	-126	-10	3	nt	8%
CC(c1ccccc1)C1CC(=O)N(Cc2ccccc2)C1=O (configuration not stated)	nt	-3	7	-2.3	-1%
O=C(Cn1cnc2ccccc2c1=O)Nc1cccc(-c2nnc3n2CCCCC3)c1	-15	5	17	9.4	-1%
NNC(=O)/C=C/c1ccc(Cl)cc1Cl	nt	-8	60	3.8	33%
COc1ccc(C(=O)CCC(=O)Nc2cccnc2)cc1	nt	17	9	-0.5	4%
CC(=O)N(c1cccc(Br)c1)c1nc(C)cc(C)c1C#N	nt	nt	-1	1.0	-4%
Cn1c(SCC(=O)NCCc2ccccc2)nc2c([nH]c3ccccc32)c1=O	nt	-8	9	0.4	4%
CCOC(=O)C1=C(COC(=O)c2cc(Br)c(Br)s2)NC(=O)NC1C (configuration not stated)	nt	nt	70	-8.5	nt
CN(c1ccccc1)S(=O)(=O)c1cccc(NC(=O)Nc2ccc(Cl)cc2C#N)c1	-19	10	29	-0.8	11%
CCOC(=O)N1CCN(S(=O)(=O)N2CCCC(C(=O)NC(C)c3ccccc3)C2)CC1 (configuration not stated)	nt	nt	-7	-2.0	nt
CC(C)(C)c1ccc(Cn2cnc(-c3ccc([N+](=O)[O-])cc3)c2)cc1	-22	-10	0	18	67%
Cc1ccc(NC(=O)CC(N)=S)cc1	nt	nt	17	-0.6	-2%
CC1CCCCC12NC(=O)N(CC(=O)Nc1ccc(N3CCOCC3)cc1)C2=O (configuration not stated)	-22	6	2	-2.4	2%
CSCC(=O)N1CCCC(CO)(Cc2ccccc2C)C1 (configuration not stated)	nt	7	-9	-1.0	-1%
Cc1ccc(Cl)c(OCC(=O)NCC(c2cccs2)N2CCOCC2)c1 (configuration not stated)	nt	nt	-1	3.1	nt
O=C(NC1CCCCC1)c1ccc(CNc2c(N3CCOCC3)c(=O)c2=O)cc1	-18	0	3	1.3	-1%
CC1CCCCC1NC(=O)COC(=O)c1ccc(S(=O)(=O)N2CCOCC2)cc1 (configuration not stated)	-37	-3	3	-0.6	2%
COc1cc(C(CCN2CCCC2)c2c(OC)cc(OC)c3c(C)cc(=O)oc23)cc(OC)c1OC (configuration not stated)	nt	nt	-4	1.5	-7%
COc1ccc(N2CCN(Cc3nc(N)nc(N4CCCc5ccccc54)n3)CC2)cc1	-10	14	88	nt	4%
CCn1c(C)nc([N+](=O)[O-])c1C(=O)O	nt	-1	-5	-0.4	4%

Next part.
SMILES	YopH inh	Arbovirus anti	Mtb betalactam	RecA intein inh	Mtb H37Rv	others
Cc1ccc(N=Nc2ccc(O)c3ncccc23)cc1C	nt	-25	94	1.0	14µM*
COc1ccc(Cc2nc(C(=O)Nc3ccc(Cl)cc3)cs2)cc1	6	0	-1	12	-6%
CCC(=O)NC(=S)Nc1cccc(NC(=O)c2ccccc2C)c1	nt	-2	10	3.2	3%
O=C(OC(C(=O)NCc1ccccc1)c1ccccc1F)c1ccco1 (configuration not stated)	nt	nt	7	1.2	nt
Cc1ccc(OC(=O)c2ccccc2P(=O)(O)O)cc1	-16	0	6	-3.1	-5%
C=CCn1c(SCC(=O)Nc2cc(C)nn2-c2ccccc2)nnc1C1CCCCC1	47	2	-10	nt	-19%	Arbovirus anti repeat=4
Cc1ccc(S(=O)(=O)N(CC(=O)Nc2ccccc2C(=O)O)c2ccc(Cl)cc2)cc1	nt	-2	-5	5.8	-1%
O=S(=O)(c1ccc2c(c1)oc1ccccc12)N1CCOCC1	-40	3	5	0.8	-1%
CC(C)c1cccc(C(C)C)c1NC(=O)CNCC(O)c1ccccc1 (configuration not stated)	nt	nt	-2	1.4	nt
CCOC(=O)CSc1nc2cc3c(cc2cc1C#N)OCCO3	nt	-12	3	-3.2	6%
CC(Oc1ccc2ccc(=O)oc2c1)C(=O)NCCCn1ccnc1 (configuration not stated)	nt	nt	4	-3.3	nt
CN(C(=O)Nc1ccc(Cl)cc1)n1cnc2ccccc2c1=O	nt	nt	nt	1.4	21%

Filtered by structure, the entries above containing a tert-butyl group.
SMILES	YopH inh	Arbovirus anti	Mtb betalactam	RecA intein inh	Mtb H37Rv	others
CC(C)(C)C1CCC(=NNC(=O)c2ccccc2-n2cccc2)CC1 (configuration not stated)	-16	-4	-2	0.0	-4%
CC(C)(C)c1ccc(Cn2cnc(-c3ccc([N+](=O)[O-])cc3)c2)cc1	-22	-10	0	18	67%

Other results.
SMILES	YopH inh	Arbovirus anti	Mtb betalactam	RecA intein inh	Mtb H37Rv	others
O=C(Cc1cccc2ccccc12)Nc1ccc(Br)cc1C(=O)O	nt	nt	8	-2.4	nt
CC(=O)c1c(C)c(C)c2n1CCn1c(C)ccc1-2	nt	nt	3	0.9	-5%
COc1ccc(N(C)S(=O)(=O)c2cccc(C(=O)Nc3nc4ccccc4[nH]3)c2)cc1	nt	-7	87	10	?
COc1cc(OC)c2c(c1)OCC1CON(C)C21 (configuration not stated)	nt	5	-6	-0.1	4%
Nc1ccc2nc(-c3cccnc3)[nH]c2c1	-1	-6	1	-1.1	10%
O=C(NCc1ccco1)c1cnn2c(C(F)(F)F)cc(-c3ccco3)nc12	-17	1	-7	-12	6%
CCn1c(SCC(=O)NCCc2ccc(F)cc2)nnc1-c1cccs1	-14	4	0	2.0	6%
COc1cc(OC)c(NC(=O)CCNC(=O)Cn2cnc3ccccc3c2=O)cc1Cl	-35	4	-1	0.8	-5%
CC1CCN(C(=O)C2CCN(S(=O)(=O)c3ccc(-n4cnnn4)cc3)CC2)CC1	nt	nt	-2	-0.6	nt
COCCNc1nc(Cl)c(C#N)s1	nt	7	0	-7.1	0%
O=C(/C=C/c1ccccc1)NCC1(c2ccccc2)CCOCC1	nt	nt	-6	2.4	7%
CCOc1cc(/C=N/Nc2cccc(C(=O)O)c2)ccc1OC(=O)c1ccccc1	nt	-4	nt	3.1	-3%

Screening results from PubChem.
